Screening results as filed in PubChem BioAssay.
Vaccinia Venus: inhibitors of vaccinia virus (Venus reporter); Potency, µM (titrated, usually from 36.5 µM), inactives show at the top dose activity change, negative = inhibition, usual class: inhibitors; 0.46% of 330,000 active; Vaccinia virus Venus reporter expression, fluorescence; active means well fitted inhibition curve with a large enough effect; inconclusive means small, poorly fitted or top-dose-only effect; inactive means no such curve, though single readings can be large or run the other way; tested in A549 cells; also: nearly all actives have a fitted effect of over 30% in size; inactives centre near -10
VACV mCherry inh: vaccinia inhibition (mCherry reporter); Vaccinia virus mCherry reporter infection, fluorescence; about a quarter of the inactives have no number; Potency, µM (series often up to 36.5 µM), without a hit: at the highest dose activity change, negative = inhibition, most hits filed as inhibitors; 0.63% of 310,000 active; active = well fitted inhibition curve with a large enough effect; inconclusive = small, poorly fitted or top-dose-only effect; inactive = no such curve, though single readings can be large or run the other way; tested in A549 cells; also: nearly all actives have a fitted effect of over 35% in size; inactives centre near -10
An asterisk follows results filed as active; i = inactive; ? = inconclusive; · = not tested or not shown; & = joins results of further samples; [ ] = dose if it differs, or a comment. % is scaled to controls: 0 for no effect and ±100 for the full control effect; potency is read from the fitted curve at half-maximal effect.

SMILES	Vaccinia Venus	VACV mCherry inh
COc1ccc(S(=O)(=O)c2c(C(=O)c3ccc(C)c(C)c3)cnc3ccc(F)cc23)cc1	7%	-4%
CCOC(=O)C1CCN(c2cc3c(cc2NC(=O)c2ccc(F)cc2)n(C)c(=O)n3C)CC1	-10%	-11%
c1ccc(-c2nnc(-c3ccccn3)nn2)nc1	-9%	?
COc1ccc(/C=C/C(=O)NC(C)(C)C)cc1S(=O)(=O)N1CCOCC1	-4%	17%
Cc1ccc(S(=O)(=O)NC2CC2)cc1[N+](=O)[O-]	-1%	-15%
CCN(CC)CCNCc1cc(Cl)ccc1OCc1ccccc1F	-21%	-25%
CCN1C(=O)[C@H]2[C@@H](c3ccc(-c4cccc(Cl)c4)c(OC)c3)N3CCCC[C@@]3(C(=O)OC)[C@H]2C1=O	?	i
COc1ccc(CNC(=O)c2cc(S(=O)(=O)N3CCCCC3)ccc2Cl)cc1OC	-20%	i
S=C(NCc1ccncc1)Nc1ccc(Cl)cc1	-3%	i
O=C(CC(=O)c1ccccc1)Nc1cccc([N+](=O)[O-])c1	-6%	i
CC(OC(=O)CNS(=O)(=O)/C=C/c1ccccc1)C(=O)Nc1ccc(S(=O)(=O)N2CCCC2)cc1 (stereo unspecified)	-12%	-13%
O=C(CN1CCN(Cc2ccc(F)cc2Cl)S1(=O)=O)Nc1ccc(F)cc1	-18%	-20%
COc1cc(C(=O)NC(=S)NNC(=O)[C@H]2C[C@@H]2c2ccccc2)cc(OC)c1OC	-18%	-22%
O=C1/C(=C/c2ccc3c(c2)OCO3)SC(=S)N1CCC(=O)N(CCO)c1ccccc1	91%[activator]	-14%
C=Cc1ccc(Cn2c(C(=O)OC)cc3sc(C)cc32)cc1	-7%	-11%
COC(=O)CCC(=O)OC1(C)C(=O)C2=CN(CC3CC3)C(c3ccc(OC)cc3)=CC2=C(Br)C1=O (stereo unspecified)	14%	6%
CCC(O)c1c(-c2ccccc2)nn(C)c1Cl (stereo unspecified)	5%	0%
CC(C)(C)OC(=O)C[C@H]1C/C=C\C[C@@H](CC(=O)N[C@H](CO)Cc2ccccc2)C(=O)NC[C@@H](c2ccccc2)OC1=O	?	i
O=c1[nH]c(-c2ccc3c(c2)OCO3)nc2c1sc(=S)n2-c1ccccc1	-2%	3%
Oc1cccc2ccc(/C=C/c3ccccc3Br)nc12	5%	?
CC(=O)N1CCCc2cc(S(=O)(=O)N(C)Cc3ccccc3)ccc21	-17%	i
N#Cc1cnn(-c2ccccc2)c1NC(=O)CN1CCN(c2ccccc2)CC1	-6%[7.34 µM]	i[7.34 µM]
Cc1cccc(COc2ccccc2/C=N/Nc2ccc([N+](=O)[O-])cc2)c1	-12%	-15%
CCc1cc(C(=O)N(CC)CC(=O)Nc2c(F)cccc2F)sc1C	-13%	i
O=C(Nc1ccc2c(c1)OCCO2)c1cccc(Cl)c1	4%	-9%

Some of these compounds in order of SMILES length, smallest number first.
SMILES	Vaccinia Venus	VACV mCherry inh
CC(OC(=O)CNS(=O)(=O)/C=C/c1ccccc1)C(=O)Nc1ccc(S(=O)(=O)N2CCCC2)cc1 (stereo unspecified)	-12%	-13%
COC(=O)CCC(=O)OC1(C)C(=O)C2=CN(CC3CC3)C(c3ccc(OC)cc3)=CC2=C(Br)C1=O (stereo unspecified)	14%	6%
CCN1C(=O)[C@H]2[C@@H](c3ccc(-c4cccc(Cl)c4)c(OC)c3)N3CCCC[C@@]3(C(=O)OC)[C@H]2C1=O	?	i

One compound at a time, as listed above. Order of screens: Vaccinia Venus	VACV mCherry inh
CCC(O)c1c(-c2ccccc2)nn(C)c1Cl (stereo unspecified) across the screens: 5%	0%
Oc1cccc2ccc(/C=C/c3ccccc3Br)nc12 across the screens: 5%	?
CCN(CC)CCNCc1cc(Cl)ccc1OCc1ccccc1F across the screens: -21%	-25%
CCN1C(=O)[C@H]2[C@@H](c3ccc(-c4cccc(Cl)c4)c(OC)c3)N3CCCC[C@@]3(C(=O)OC)[C@H]2C1=O across the screens: ?	i
COc1ccc(CNC(=O)c2cc(S(=O)(=O)N3CCCCC3)ccc2Cl)cc1OC across the screens: -20%	i

(cont.)
SMILES	Vaccinia Venus	VACV mCherry inh
CCCCn1cc(S(=O)(=O)c2ccc(OC)cc2)c(=O)c2cc(F)c(F)cc21	-14%	i
COc1cccc(-c2ccc3c(N)c(C(=O)Nc4ccccc4C)sc3n2)c1	-9%	-2%
CCc1nc2ccc(C(=O)N3CCN(S(=O)(=O)CC)CC3)cn2c1N(CC)Cc1cccc(Br)c1	-19%	-23%
O=C(NCCN1CCOCC1)c1cc(=O)[nH]c2ccc(Br)cc12	-12%	·
CCOC(=O)C1=C(C)NC(SC)=C(C#N)C1CC(C)C (stereo unspecified)	-20%[7.34 µM]	-21%[7.34 µM]
O=C(NC1CCCC1)C1(c2ccccc2)CCN(S(=O)(=O)c2ccccc2)CC1	-5%	-9%
Clc1ccc(CNCc2cccs2)cc1Cl	-4%	-14%
CCOc1ccc(C(=O)Nc2ccc3nc4c(c(Nc5ccccc5OC)c3c2)CCCC4)cc1	?	?
O=C(NCCc1ccccc1)C(=O)NCC(c1ccco1)N1CCOCC1 (stereo unspecified)	-3%	-10%
COC(=O)c1ccccc1-c1cc(C)cc2c1OC(CNC(=O)c1cc(C)n(C)n1)C2 (stereo unspecified)	-10%	i
CC1Sc2ccc(S(=O)(=O)N3CCC(C(=O)Nc4cccc(Cl)c4)CC3)cc2NC1=O (stereo unspecified)	?	?
Cc1cccn2cc(CNS(=O)(=O)c3ccc4ccccc4c3)nc12	-18%	-2%
CC(C(=O)NCCN1C(=O)S/C(=C\c2cccs2)C1=O)N1C(=O)c2ccccc2C1=O (stereo unspecified)	-10%	-20%
Cc1scc(CN2CCN(c3ccc(F)cc3)CC2)c1C	-6%	-3%
CC(C)c1ccc(NC(=O)C2Cc3c(-c4cccc(C(N)=O)c4)ccnc3O2)cc1 (stereo unspecified)	-13%	i
COC(=O)c1[nH]c2ccc(Br)cc2c1NC(=O)CN1CCCCC1CCO (stereo unspecified)	-27%	-16%
O=C(Nc1ccccc1C(=O)NC1CC1)c1ccc([N+](=O)[O-])o1	?	?
COc1ccccc1NC(=O)CC1SC(=N)N(c2ccccc2)C1=O (stereo unspecified)	-22%	?
COc1ccc(OC)c(NC(=O)CCc2c[nH]c3ccccc23)c1	-30%	?
COc1ccc(NC(=O)Cn2c(=O)n(Cc3ccc4c(c3)OCO4)c(=O)c3ccc(C(=O)NC4CCCCC4)cc32)cc1	-24%	-20%
O=C(Nc1ccccc1)c1cc(-c2ccccc2Cl)no1	0%	i
CC(=O)Nc1cccn(Cc2c(Cl)cccc2Cl)c1=O	-8%	-8%
Cc1ccc2nc3sc(C(=O)Nc4c(C)[nH]c(=O)[nH]c4=O)c(N)c3cc2c1	8%	-9%
Cc1cc([N+](=O)[O-])nn1CC(=O)NNC(=S)Nc1ccc(Cl)cc1	-3%	i
Cc1cc(CNC[C@H]2O[C@@H](n3cnc(C(N)=O)n3)[C@H](O)[C@@H]2O)c(C)n1-c1cccnc1	0%	-4%
(more compounds)
SMILES	Vaccinia Venus	VACV mCherry inh
O=C(NC1CC1)C1=C[C@@H](C2CCCCC2)C[C@@H](OCc2ccc(CO)cc2)O1	-21%	?
CC(N)C(=O)NC(C(=O)NC(C)C(=O)Nc1cccc2ccccc12)C(C)C (stereo unspecified)	7%	8%
Fc1ccc(CNC(=S)NCc2ccccc2)cc1	0%	-19%
CC1(C)NC(=O)N(CNc2cc(Cl)ccc2Cl)C1=O	2%	-1%
Cc1ccc(-c2csc(NC(=O)c3ccco3)n2)cc1C	-23%	i
Cc1cc(OCCn2cc(/C(N)=N/O)c3ccccc32)ccc1Cl	?	?
Cc1c(OC(=O)c2ccc([N+](=O)[O-])cc2)c2c(c[n+]1C)COC(C)(C)OC2	-7%	·
NC(=O)C1CCN(C(=O)CCc2nc3sc4c(c3c(=O)[nH]2)CCCC4)CC1	-3%	i
C#CCOCCOCCOCCNc1nc(N2CCN(C(=O)[C@H](CCCCN)n3cc([C@@H](N)C(C)CC)nn3)CC2)nc(N2CCN(C(=O)[C@H](Cc3cc4ccccc4[nH]3)n3cc([C@@H](N)CC(C)C)nn3)CC2)n1 (stereo partly specified)	-10%	i
COc1ccc(CCNS(=O)(=O)c2cccc3nsnc23)cc1OC	-13%	-1%
O=c1[nH]c(C2CCN(S(=O)(=O)c3ccc(C(F)(F)F)cc3)CC2)nc2c1nnn2Cc1ccc(F)cc1	-16%	i
O=C(O)c1ccccc1	1%	7%
CC1C(=O)N(Cc2cn(CCC3OCCCO3)nn2)CCS(=O)(=O)N1Cc1ccc(-c2ccccc2)cc1 (stereo unspecified)	-18%	i
CCc1ccc(NC(=O)CSc2nnc(-c3ccco3)o2)cc1	-1%	-16%
COc1ccc(CCNC(=O)c2cc3c(=O)n(C)c4ccccc4c3s2)cc1OC	-12%	-6%
O=C(Nc1nnc(-c2cccs2)o1)c1cccc(C(F)(F)F)c1	-17%	-16%
CN(C1CCCCC1)S(=O)(=O)c1ccc(F)c(C(=O)Nc2ccc(C(F)(F)F)cc2)c1	-18%	-23%
COc1ccc(Br)cc1/C=C\C(=O)NCc1cccnc1	-14%	i
O=C(NCCN1CCCCCC1)C1CCN(S(=O)(=O)N2CCOCC2)CC1	?	·
O=C(CN1CCN(Cc2ccc3c(c2)OCO3)CC1)Nc1ccc2c(c1)OCO2	-8%	-24%
Cc1c(OC(C)C(=O)N2C[C@H]3C[C@@H](C2)c2cccc(=O)n2C3)ccc2c3c(c(=O)oc12)CCCC3 (stereo partly specified)	-1%	1%
CC(C)C[C@@H]1CN=C(N)N1C[C@@H]1CCCN1C[C@@H](C(C)C)N1C[C@@H](Cc2ccccc2)N(CCCC2CCCC2)C1=N	0%	i
CCOC(=O)[C@]12CCC=C1N(CCC1=CCCCC1)C(=O)[C@H](CC(=O)NCCC(C)C)C2	-2%	-17%
COc1cccc(NS(=O)(=O)c2ccc3[nH]cc(C(=O)N4CCCCCC4)c(=O)c3c2)c1	-10%	-17%
CCc1ccc(S(=O)(=O)N(C(=O)c2ccncc2)c2ccc3oc(C)c(C(=O)OC)c3c2)cc1	-21%[7.34 µM]	-21%[7.34 µM]
The list continues:
SMILES	Vaccinia Venus	VACV mCherry inh
COc1ccc(-c2onc(C)c2C)cc1S(=O)(=O)NC1CCC(C)CC1 (stereo unspecified)	-25%	-4%
Cc1ccc(F)cc1NC(=O)C1CC(=O)N(Cc2ccccc2)C1 (stereo unspecified)	-8%	-15%
CCOC(=O)c1ccccc1NC(=O)c1c(O)c2ccccc2n(CC)c1=O	-21%	·
COC(=O)c1c(C)[nH]c(C(=O)OCC(=O)NCC(C)C)c1C	?	·
CN(C)c1nc(-c2ccccc2)nc(-c2ccc(Cl)cc2)c1C#N	6%	·
Cn1cnc([N+](=O)[O-])c1Nc1ccccc1O	3%	·
Fc1ccc(CNc2ncnc3nc[nH]c23)cc1	-18%&-13%	4%&-10%
CC(C)Oc1ccc(C(=O)N(Cc2ccc(N(C)C)cc2)C2CCS(=O)(=O)C2)cc1 (stereo unspecified)	-8%	-7%
CCOc1cc(S(=O)(=O)n2cnc(C)c2)ccc1Cl	-17%	-13%
CC(C)(C)OC(=O)N1CCC(c2c(C(=O)N3CCN(c4ncccn4)CC3)cnn2-c2ccc(F)cc2F)CC1	-8%	-15%
COCCN(C(=O)COC(=O)COc1ccc(Cl)c(C)c1)c1c(N)n(Cc2ccccc2)c(=O)[nH]c1=O	-3%	-10%
COc1ccc(CCNC(=O)c2ccc(N3CCCC3=O)cc2)cc1OC	-10%	i
COc1ccc(-c2cc(Nc3ccccc3NC(=O)C(F)(F)F)n(CCC#N)n2)cc1	-22%	-29%
CCn1ccc2cc(S(=O)(=O)N3CCC(C(=O)NCc4ccc(OC(C)C)cc4)CC3)ccc21	-4%	-19%
C[C@H](CO)N1C[C@H](C)[C@H](CN(C)C(=O)C2CC2)OCc2cnnn2CCCC1=O	-4%	i
COc1cccc(NC(=O)CN2CCC(NC(=O)c3ccccc3C)CC2)c1	-5%	-1%
COP(=O)(OC)c1nc(-c2cccc3ccccc23)oc1N1CCOCC1	-19%	?
C=CCNC(=O)c1c(N)n(-c2ccc3c(c2)OCO3)c2nc3ccccc3nc12	3%	-15%
CC(NC(=O)CC1CCCCC1)c1ccccc1 (stereo unspecified)	-12%	-24%
O=c1c2[nH]c3ccccc3c2ncn1Cc1ccccn1	-11%	-15%
COC(=O)c1cn(-c2ccc(F)cc2)c(=O)c2ccccc12	2%	-1%
Cc1ccccc1C(=O)Nc1ccc2oc(-c3ccc(Cl)c(Cl)c3)nc2c1	-26%	-21%
CCCCOC(=O)c1ccc(NC(=O)Nc2ccc(OC)c(OC)c2)cc1	?	·
Cc1scc(C(=O)NNC(=S)NCC2CCCO2)c1C (stereo unspecified)	-8%	-4%
CC1CN(CCC(=O)Nc2ccc3c(c2)CCC3)CC(C)O1 (stereo unspecified)	-9%	i
COc1cccc(C2CC(=O)Nc3c2c(=O)[nH]c2nc4ccccc4n32)c1 (stereo unspecified)	-1%	2%
COc1cc(C(=O)Nc2ccc(C(F)(F)F)cc2)ccc1OCC(=O)N1CCOCC1	-8%	-23%
Cc1ccc(-c2ccc(SCC(=O)c3ccccc3)nn2)cc1	-17%	-16%
COc1ccc(OC)c(NC(=O)C2CCN(S(=O)(=O)c3ccc4c(c3)CC(C)N4C(C)=O)CC2)c1 (stereo unspecified)	-16%&-14%	-19%&-9%
COc1ccc(CCNC(=O)c2csc3c2CCCC3)cc1	-19%	-18%
